Screens as filed in PubChem.
Mtb BioA inh: M. tuberculosis BioA enzyme inhibitors, primary screen, biochemical, plate reader, single point, HTS; inhibition, % at 9.99 µM; 7,8-diaminopelargonic acid synthase BioA (Mycobacterium tuberculosis); 0.096% of 360,000 active; purified M. tuberculosis BioA enzyme; in the data active means inhibition above about 40%
PfHsp40 yeast: rescue of yeast from PfHsp40 toxicity, primary screen, S. cerevisiae, ATP luminescence; growth rescue, % at 12.5 µM; 0.68% of 340,000 active; AID 504582, 2011; S. cerevisiae expressing PfHsp40, growth rescue; in the data active means growth rescue above about 28%, passing the limit was not always enough;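 further: yeast W303a lacking pdr1 and pdr3 grown in galactose medium; growth measured after three days at 30 °C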
BoNT A protease: BoNT/A light chain protease inhibitors, primary screen, biochemical, flow cytometry, MLPCN library. Botulinum neurotoxin type A light chain protease (Clostridium botulinum A str. ATCC 3502). multiplex microsphere protease substrate cleavage. inhibition, % at 10 µM. 0.17% of 360,000 active; in the data active means inhibition above about 30%; further: plate controls were buffer without enzyme for full effect and enzyme alone for no effect
FadD28 binding: inhibitors of FadD28 bisubstrate probe binding, primary screen, biochemical, fluorescence polarization, single point; Mycobacterium tuberculosis FadD28 fatty-acid-AMP ligase; inhibition, % at 12.5 µM; 0.22% of 360,000 active; AID 588549, 2011; in the data active means inhibition above about 8.5%, passing the limit was not always enough
Mtb UGM inh: M. tuberculosis UGM enzyme inhibitors, primary screen, biochemical, fluorescence polarization, single point. purified UGM, fluorescence polarization probe displacement. 0.06% of 320,000 active. inhibition, % at 10 µM. UDP-galactopyranose mutase (Mycobacterium tuberculosis (strain ATCC 25618 / H37Rv)), …; in the data active means inhibition above about 10%, passing the limit was not always enough
Target sequence (P9WIQ1 whole entry, looked up): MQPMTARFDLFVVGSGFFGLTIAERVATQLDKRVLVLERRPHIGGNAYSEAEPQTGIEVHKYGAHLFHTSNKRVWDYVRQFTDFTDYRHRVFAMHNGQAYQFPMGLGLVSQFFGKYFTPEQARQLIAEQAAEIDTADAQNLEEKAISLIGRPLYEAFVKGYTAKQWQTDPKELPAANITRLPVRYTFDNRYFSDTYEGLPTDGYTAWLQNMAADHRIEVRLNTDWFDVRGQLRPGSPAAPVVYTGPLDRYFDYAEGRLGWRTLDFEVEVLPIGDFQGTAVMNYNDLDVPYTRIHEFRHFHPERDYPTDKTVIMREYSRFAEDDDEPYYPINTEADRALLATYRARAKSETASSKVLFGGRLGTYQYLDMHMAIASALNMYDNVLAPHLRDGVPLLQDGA
The depositor's hits bear a star; · = not tested or not shown; & = joins results of further samples. The list is partial; count on the stated rates, not on these rows.

No. | SMILES | Mtb BioA inh | PfHsp40 yeast | BoNT A protease
1 | COc1cccc(-c2nc3ccc(N4CCN(C)CC4)cc3[nH]2)c1 | 0.9 | -1.8 | -0.3
2 | c1ccc(-c2cn3cccnc3n2)cc1 | 0.1 | -1.0 | 0.5
3 | O=C(O)CC(O)C(=O)O (stereo unspecified) | -0.3 | 0.2 | 0.7
4 | COc1ccc(-c2cn3cccnc3n2)cc1 | · | -0.1 | 0.0
5 | CN[C@H]1CC[C@@H](c2ccc(Cl)c(Cl)c2)c2ccccc21 | 1.9&-2.3 | 23&1.2 | -0.4&-0.7
6 | CC(=O)Nc1ccc(Oc2ncccn2)cc1 | -0.4 | -1.2 | 1.3
7 | CCCCOCCO | -1.5 | 0.0 | 0.6
8 | COc1cc2c(c(OC)c1OC)-c1ccc(OC)c(=O)cc1[C@@H](NC(C)=O)CC2 | -0.3 | -0.9 | -1.3
9 | CN1CCCc2cc(C#N)c(=O)[nH]c21 | 0.8 | -0.9 | -1.1
10 | CN(C)CCOC(c1ccccc1)c1ccccc1 | 0.7&1.0 | -0.1&-1.1 | -0.5&-0.6

No. | FadD28 binding | Mtb UGM inh
1 | 0.3 | 1.8
2 | 0.4 | -0.2
3 | -2.4 | -0.5
4 | -3.5 | 0.3
5 | -9.3&-5.9 | 0.0&-0.5
6 | -1.6 | 1.4
7 | -4.3 | ·
8 | -1.0 | -1.1
9 | -3.3 | -0.8
10 | -1.5&-2.6 | 2.3

Taken from above.
FadD28 binding with compound 6 is entered as -1.6
Mtb UGM inh with compound 5 is entered as 0.0&-0.5
BoNT A protease with compound 7 is entered as 0.6
Mtb BioA inh with compound 9 is entered as 0.8
PfHsp40 yeast with compound 4 is entered as -0.1
FadD28 binding with compound 2 is entered as 0.4
FadD28 binding with compound 10 is entered as -1.5&-2.6

The list continues.
No. | SMILES | Mtb BioA inh | PfHsp40 yeast | BoNT A protease
11 | CC1OC(OC2C(CO)OC(OC3C(CO)OC(O)C(O)C3O)C(O)C2O)C(O)C(O)C1N[C@@H]1C=C(CO)[C@@H](O)C(O)[C@H]1O (stereo partly specified) | -6.0 | -1.4 | 0.2
12 | Nc1ccc2nn(-c3ccc(Cl)cc3)nc2c1 | -1.1 | 0.8 | 0.6
13 | COc1cc2c(c(OC)c1OC)-c1ccc(OC)c(=O)cc1C(NC(C)=O)CC2 (stereo unspecified) | -0.5 | -1.4 | 2.4
14 | CCc1ccc2oc(-c3ccc(N)cc3)nc2c1 | 0.9 | 0.6 | 0.0
15 | Cc1cc(C)c2c(c1)NP(=S)(c1ccccc1)N2 (stereo unspecified) | -0.3 | 0.4 | -0.6
16 | CC1(C)Oc2ccc3ccc(=O)oc3c2/C(=N/O)C1=O | -1.5 | -1.1 | -4.8
17 | COc1cc(OC)c(S(=O)(=O)Nc2ccccc2C(=O)O)cc1S(=O)(=O)Nc1ccccc1C(=O)O | 2.3 | 1.5 | -2.3
18 | O=c1oc2cc(O)ccc2cc1-c1ccc(F)cc1 | -0.6 | 0.7 | -0.5
19 | CN1CC[C@]23c4c5ccc(O)c4OC2C(O)C=CC3[C@H]1C5 (stereo partly specified) | 1.8 | -0.3 | -1.0
20 | NCCCC(=O)O | -0.8 | 0.4 | 0.3

No. | FadD28 binding | Mtb UGM inh
11 | -2.7 | -2.3
12 | -4.2 | -0.8
13 | -3.5 | -2.8
14 | -2.4 | -0.3
15 | -4.9 | ·
16 | -0.7 | 1.5
17 | -1.4 | 2.4
18 | 3.2 | 1.3
19 | 0.6 | ·
20 | 1.2 | 1.0

Six compounds already listed, arranged by SMILES length, smallest number first:
No. | SMILES | Mtb BioA inh | PfHsp40 yeast | BoNT A protease
20 | NCCCC(=O)O | -0.8 | 0.4 | 0.3
12 | Nc1ccc2nn(-c3ccc(Cl)cc3)nc2c1 | -1.1 | 0.8 | 0.6
18 | O=c1oc2cc(O)ccc2cc1-c1ccc(F)cc1 | -0.6 | 0.7 | -0.5
15 | Cc1cc(C)c2c(c1)NP(=S)(c1ccccc1)N2 (stereo unspecified) | -0.3 | 0.4 | -0.6
16 | CC1(C)Oc2ccc3ccc(=O)oc3c2/C(=N/O)C1=O | -1.5 | -1.1 | -4.8
13 | COc1cc2c(c(OC)c1OC)-c1ccc(OC)c(=O)cc1C(NC(C)=O)CC2 (stereo unspecified) | -0.5 | -1.4 | 2.4

No. | FadD28 binding | Mtb UGM inh
20 | 1.2 | 1.0
12 | -4.2 | -0.8
18 | 3.2 | 1.3
15 | -4.9 | ·
16 | -0.7 | 1.5
13 | -3.5 | -2.8

Next records follow:
No. | SMILES | Mtb BioA inh | PfHsp40 yeast | BoNT A protease
21 | Cc1cccc2c1NC1(CCCC1)CC2C (stereo unspecified) | -1.4 | · | 6.7
22 | COc1cccc([C@@]2(O)CCCC[C@@H]2CN(C)C)c1 | · | -1.4 | 0.4
23 | CN[C@@H](C)[C@@H](O)c1ccccc1 | 1.0 | -1.2 | -0.4
24 | Oc1cc(Cl)c(Cl)c(Cl)c1Cl | 0.4 | 3.6 | -0.3
25 | CN1CCc2cccc3c2C1Cc1ccc(O)c(O)c1-3 (stereo unspecified) | 0.5 | 7.0 | -1.0
26 | CC(C)(C(=O)O)c1ccc([C@H](O)CCCN2CCC(C(O)(c3ccccc3)c3ccccc3)CC2)cc1 | -0.5 | -1.1 | -0.2

No. | FadD28 binding | Mtb UGM inh
21 | -1.6 | -0.1
22 | 0.7 | -2.1&-0.7
23 | -0.1 | -2.7
24 | 0.1 | ·
25 | -0.6 | 2.4
26 | -4.3 | -1.8

Values in list order from the entries so far.
BoNT A protease, entries 8–16, in order: -1.3, -1.1, -0.5&-0.6, 0.2, 0.6, 2.4, 0.0, -0.6, -4.8
FadD28 binding, entries 8–16, in order: -1.0, -3.3, -1.5&-2.6, -2.7, -4.2, -3.5, -2.4, -4.9, -0.7
Mtb BioA inh, entries 8–16, in order: -0.3, 0.8, 0.7&1.0, -6.0, -1.1, -0.5, 0.9, -0.3, -1.5
